# Vaccinia Venus = vaccinia inhibition (Venus reporter); 0.46% of 330,000 active; AID 720580; Vaccinia virus Venus reporter expression, fluorescence; Potency, µM (doses to about 36.5 µM), for the others: top-dose activity change, negative = inhibition, most hits filed as inhibitors; active means well fitted inhibition curve with a large enough effect; inconclusive means small, poorly fitted or top-dose-only effect; inactive means no such curve, though single readings can be large or run the other way; tested in A549 cells; note: nearly all actives have a fitted effect of over 30% in size; inactives centre near -10
# Vaccinia mCherry = vaccinia inhibition (mCherry reporter); Vaccinia virus mCherry reporter infection, fluorescence; about a quarter of the inactives have no number; Potency, µM (doses to about 36.5 µM), for inactives: at the top dose activity change, negative = inhibition, most hits filed as inhibitors; 0.63% of 310,000 active; AID 720579; active = well fitted inhibition curve with a large enough effect; inconclusive = small, poorly fitted or top-dose-only effect; inactive = no such curve, though single readings can be large or run the other way; tested in A549 cells; note: nearly all actives have a fitted effect of over 35% in size; inactives centre near -10
# Numbers without * were called inactive; i = inactive; ? = inconclusive; / = no result given; & = joins results of further samples; [ ] = dose if it differs, or a comment. % is set by controls: 0 for no effect and ±100 for the full control effect; potency is the fitted concentration of half-maximal effect. Outcome played no part in choosing rows; overall some 0.82% were active at least once.
# The line under a structure holds: Vaccinia Venus, Vaccinia mCherry
- COc1ccc(N(C)C(=O)Cn2c(=O)oc3ccccc32)c(OC)c1
  -17%, i
- O=C(NCc1ccccc1)/C(=C/c1ccccc1)NC(=O)c1ccco1
  -2%, -4%
- CCOc1ccccc1NC(=O)Nc1ccncc1
  -18%, -22%
- CCC(=O)N1CCN(c2ccccc2NC(=O)c2ccc(OC)c(Cl)c2)CC1
  1%, -7%
- CCc1ccc(S(=O)(=O)Nc2ccc(-c3ccc(N4CCCC4)nn3)cc2)cc1
  -8%, 4%
- COc1ccc([C@H]2CC(=O)C=C(c3ccc(OC)c(F)c3)C2)cc1
  -21%, -12%
- O=C(NCc1ccccc1)C(=O)NCC(c1ccco1)N1CCN(c2ccccc2F)CC1 (configuration not stated)
  -7%, -18%
- COc1ccc(NC(=O)N2CCC(c3nc(-c4cccs4)no3)CC2)cc1
  -18%, -16%
- O=[N+]([O-])c1ccc(Cl)c(CN2CCSCC2)c1
  -1%, -8%
- Cc1onc(-c2ccccc2)c1C(=O)NCC(=O)Nc1cc(Cl)ccc1Cl
  -11%, i

# (list continues)
# The line under a structure holds: Vaccinia Venus, Vaccinia mCherry
- CN(CC(=O)Nc1ccc(N2CCOCC2)cc1)C(=O)c1cn(-c2ccccc2)nc1-c1ccccc1
  -15%, -13%
- CC(=O)c1cccc(NC(=O)CCCCCn2nnc3ccccc3c2=O)c1
  -6%, -10%
- COc1cccc(-c2cc3nc(-c4ccccc4)cc(=O)n3[nH]2)c1
  -24%, ?
- CCCN(CCC)S(=O)(=O)c1ccc(C(=O)N2CCC(=O)c3ccccc32)cc1
  -14%, /
- CCOC(=O)c1c(C)noc1-c1ccco1
  -5%, -6%
- O=C(CCCn1c(=O)oc2ccccc21)N1CCN(c2ccccn2)CC1
  -12%, -6%
- CN(C)c1ncnc2c1ncn2[C@H]1CN(Cc2ccc3c(c2)OCO3)C[C@@H](CO)O1
  1%, -2%
- O=C(Cn1cc([N+](=O)[O-])cn1)Nc1ccccn1
  0%, 0%
- CC(=O)Nc1ccc([N+](=O)[O-])c(CS(=O)(=O)c2ccc(C)cc2)c1[N+](=O)[O-]
  -4%, -10%
- CCc1ccc(NC(=O)c2ccc(C3SCC(=O)N3CCc3ccccc3)cc2)cc1 (configuration not stated)
  -18%, -20%

# Further compounds.
# The line under a structure holds: Vaccinia Venus, Vaccinia mCherry
- COc1ccc(OC)c(CC(NC(C)=O)C(=O)NC2CCN(S(=O)(=O)c3ccc(NC(C)=O)cc3)CC2)c1 (configuration not stated)
  1%, -12%
- O=[N+]([O-])c1ccc(Sc2nccn2Cc2ccccc2)cc1
  -22%, -24%
- Cc1cccc(OCCn2nnc3sc4c(c3c2=O)CCCC4)c1
  2%, -4%
- O=C(O)c1ccc(Nc2nc3ccc(Cl)cc3[nH]2)cc1
  -1%, i
- CCC(C)[C@H](N)C(=O)N[C@H]1CCC2C3CC=C4C[C@@H](O)CC[C@]4(C)C3CC[C@@]21C (some centres not stated)
  -26%, -17%
- O=C(O)c1cc([N+](=O)[O-])ccc1NCc1cccnc1
  -19%, -19%
- CCCS(=O)(=O)N1CCN=C1SCc1cccnc1
  -10%, -5%
- COc1cc(NC(=O)c2ccc(F)cc2)c(OC)cc1NC(=O)CN1CCOCC1
  -18%, -9%
- Cc1nnc(NC(=O)C23CC4CC(C)(CC(C)(C4)C2)C3)s1
  1%, i
- COc1ccc(/C(C)=N/NC2=NCCN2)cc1Cl
  -23%, -22%

# Next section:
# The line under a structure holds: Vaccinia Venus, Vaccinia mCherry
- CC(=O)c1nnn(-c2ccccc2C#N)c1C
  -3%, -12%
- CCOc1ccc(C(=O)NCC(=O)N2CCCCCCC2)cc1OCC
  -19%, -6%
- Cc1nnsc1C(=O)Nc1ccc(S(=O)(=O)N2CCCCC2C)cc1 (configuration not stated)
  -11%, i
- COC(=O)c1cc(-c2c(-c3cc(OC)c(OC)c(OC)c3)noc2C)cc([N+](=O)[O-])c1
  -27%&-19%, -26%&-3%
- CCc1nnc(SCc2cn3c(C)cc(C)nc3n2)n1N
  -4%, /
- CCOC(=O)C1=C(C)NC(C)=C(C(=O)OCC)C1C
  -27%, -1%
- Cc1ccc(NCC(=O)N/N=C\c2ccc[nH]2)cc1
  -18%, ?
- CC(C)CC(=O)NC(=S)Nc1ccc(NC(=O)c2ccco2)cc1
  -14%, -4%
- Cc1cc(C=O)c(C)n1-c1ccc(Cl)c(C(=O)O)c1
  0%, i
- Cc1ccc([C@H]2C(C(=O)O)=CC[C@@H](c3cccc(Cl)c3)N2S(=O)(=O)c2ccc(C)cc2)cc1
  -11%, i

# Other results follow.
# The line under a structure holds: Vaccinia Venus, Vaccinia mCherry
- Cc1ccc(-c2nc3cc(N)ccc3o2)cc1Br
  -16%, ?
- CCOc1ccc(CCN2C(=S)N([C@@H](Cc3ccc(O)cc3)CN3CCC[C@@H]3CN3C(=S)NC[C@@H]3Cc3ccccc3)C[C@@H]2CC(C)C)cc1
  -22%, -13%
- Cc1ccnc(-n2c(-c3ccco3)nc3ccccc3c2=O)c1
  -5%, i
- COc1ccc([C@H]2N[C@]3(CCCN(Cc4ccc(F)cc4)C3=O)[C@H]3C(=O)N(Cc4ccccc4)C(=O)[C@@H]23)cc1
  ?, -23%
- CCO[C@@H]1OC(C(=O)Nc2ccccc2)=C[C@H](c2ccc(Br)cc2)[C@H]1CCCO
  -9%, 13%
- Cc1cc(C)n(S(=O)(=O)c2cccc(Cl)c2Cl)n1
  -4%, -10%
- Cc1ccc(S(=O)(=O)N2CCN(Cc3noc(CCC(=O)N4CCCCC4)n3)CC2)c(C)c1
  1%, 4%
- Cc1ccc(-c2nnn(CCOc3cccc(Br)c3)n2)cc1
  -9%, -15%
- COc1ccc(NC(=O)CN(C)C(=O)CC2CCCCC2)cc1
  -14%, i
- c1ccc(C[C@H]2CN=C(Nc3ccccc3)N2CCC2CCCC2)cc1
  -22%, -10%

# (further entries)
# The line under a structure holds: Vaccinia Venus, Vaccinia mCherry
- Cc1ccc(N2CCN(S(=O)(=O)c3ccc(Cl)c4ccccc34)CC2)c(C)c1
  3%, -3%
- O=C(NCCCN1CCOCC1)c1ccc2c(=O)n(Cc3ccc(Cl)cc3)c(=S)[nH]c2c1
  18%[7.34 µM], 8%[7.34 µM]
- CN(C)C(=O)c1cccc(-c2cc(NC=O)c3ncc(-c4ccc(F)cc4)n3c2)c1
  ?, -18%
- O=C(NCc1cccs1)c1ccc(Br)o1
  -8%, i
- Cc1cccc(-n2c(O)c(C=Nc3cccc(O)c3)c3ccccc3c2=O)n1
  -1%, -3%
- CC(=O)c1ccc(NC(=O)C(C)OC(=O)c2cccc(-n3cnnn3)c2)cc1 (configuration not stated)
  -4%, -12%
- CCOC(=O)N1CCC(n2c(=S)[nH]c3ccccc3c2=O)CC1
  -22%, /
- CC(=O)c1ccccc1C(=O)NCC1Cc2cccc(-c3cccnc3)c2O1 (configuration not stated)
  -9%, -5%
- COC(=O)c1nnn(CC(=O)Nc2cccc(Cl)c2)c1C(=O)OC
  0%, -6%
- COc1ccccc1-c1nc2cc(C(=O)NC[C@H]3CCc4ccccc4O3)cc(NC(C)=O)c2n1C
  7%, -5%

# Going on with the list:
# The line under a structure holds: Vaccinia Venus, Vaccinia mCherry
- COc1ccc(-c2ccc(C(=O)NCc3ccco3)c3occc23)c(C)c1
  -14%, -1%
- Cc1cc(NC(=O)c2coc(=O)c(Br)c2)ccc1C(C)C
  -2%, -7%
- COC(=O)[C@@H]1C[C@H]1[C@@H](NP(=O)(c1ccccc1)c1ccccc1)c1ccccc1
  -6%, i
- CCOc1ccc(N2C(=O)Cc3ccccc3C2=O)cc1
  -7%, -5%
- COC(=O)C(OC(=O)c1ccccc1)C(C)Br (configuration not stated)
  -6%, -13%
- CC(C)(C)c1cc(C(=O)NCc2cc(F)cc3c2OCOC3)n(Cc2ccccc2)n1
  -3%, -3%
- COc1ccc(NC(=O)C(=O)NCCC2=CCCCC2)c(OC)c1
  -9%, -16%
- Cc1ccc(S(=O)(=O)NCCC2(C(C)C)CCOC(C)(C)C2)cc1 (configuration not stated)
  ?, /
- Cc1ccc(C(=O)NC(C)c2ccc(-n3ccnc3)cc2)cc1S(=O)(=O)N1CCOCC1 (configuration not stated)
  -14%, i
- CC(OC(=O)C1CC1C)C(=O)Nc1ncc(Cl)cc1Cl (configuration not stated)
  -3%, i

# (further entries)
Compound | Vaccinia Venus | Vaccinia mCherry
N#CC1=C(N)OC2=C(CCc3ccccc32)C1c1ccccc1 (configuration not stated) | ? | ?
Brc1ccc(CSc2ncnc3nc[nH]c23)cc1 | -16% | -26%
CC(=O)Nc1cccc(NC(C)=O)n1 | 0% | -15%
Cc1ccc(-c2cn(CCN)c(-c3ccc(Cl)nc3)n2)cc1 | -9% | i
COc1ccc(C(=O)NCc2ccc(C(=O)O)o2)cc1 | -10% | -19%
O=C(COC(=O)c1cc([N+](=O)[O-])ccc1N1CCOCC1)Nc1c(Cl)cccc1C(F)(F)F | -11% | -20%
CCN1CCN(c2cc(C)c3cc(NC(=O)c4cnccn4)ccc3n2)CC1 | ? | ?
CCOC(=O)CC(NC(=O)Cn1nnc(-c2ccccc2F)n1)c1ccccc1Cl (configuration not stated) | 10% | 13%

# Further records:
Compound | Vaccinia Venus | Vaccinia mCherry
Cc1ccc(C)c(CN2C(=O)C(C)Oc3ccc(C)cc32)c1 (configuration not stated) | -8% | i
Cc1ccccc1NC(=O)c1cccc2c(=O)c3c([nH]c12)CCCC3 | -7% | -23%
Cc1ccccc1NC(=O)C1CC(=O)N(c2ccccc2F)C1 (configuration not stated) | 3% | /
COC(=O)[C@H](Cc1ccccc1)NC(=O)c1cc(COc2c(F)cccc2F)on1 | -29%[7.34 µM] | -5%[7.34 µM]
Cc1ccc(NC(=O)COC(=O)C2CCC2)cc1S(=O)(=O)N1CCCCC1 | -27% | -2%
COC(=O)C1CCN(C(=O)COc2ccc(Cl)cc2)CC1 | -2% | -6%
COc1ccc(S(=O)(=O)Nc2ccc3c(c2)C(=O)N([C@H](C)CO)C[C@H](C)[C@@H](CN(C)C(=O)Nc2c(C)noc2C)OCCCC[C@H](C)O3)cc1 | -5% | -24%
COc1ccc(CC(=O)Nc2ccccc2NC(=O)c2ccco2)cc1OC | 12% | i

# More structures.
Compound | Vaccinia Venus | Vaccinia mCherry
NC(=O)C1CCN(C(=O)CC2(CC(=O)O)CCCCC2)CC1 | -18% | -19%
CCNCc1cc(OCC)c(OCC(=O)NCCc2ccccc2)cc1Cl | -10% | -15%
O=C(CSc1cccc[n+]1[O-])NN(c1ccccc1)c1ccccc1 | 0%[7.34 µM] | i[7.34 µM]
CN(CCc1ccccc1)C(C(=O)c1ccc2c(c1)OCO2)c1nnnn1-c1ccccc1NC(=O)OC(C)(C)C (configuration not stated) | -7% | ?
COc1cccc(COC(=O)C2CCN(S(=O)(=O)c3ccc(F)cc3)CC2)c1OC | -1% | -1%
CN(C)c1nc(N(C)C)n(Cc2c(Cl)cccc2Cl)n1 | -6% | -6%
Cc1cccc2nc(=S)n(C(=O)c3ccco3)n12 | -5% | -4%
CCC(C)NC(=O)COc1ccccc1[N+](=O)[O-] (configuration not stated) | -5% | -9%

# The list continues:
Compound | Vaccinia Venus | Vaccinia mCherry
Cc1cccc(N2CCN(C(=O)CCN3C(=O)C4C5C=CC(C5)C4C3=O)CC2C)c1 (configuration not stated) | -7% | i
COc1ccc(CN2CCC2(C)C(=O)Nc2ccc(OC)c(OC)c2)cc1 (configuration not stated) | -7% | 1%
COc1cc(C(=O)N(Cc2cc3ccc(C)cc3nc2N(C)C)C2CC2)cc(OC)c1OC | 3% | -8%
COc1ccccc1-c1ccc(SCc2ccccc2)nn1 | -10% | -4%
CCC1(c2ccccc2)NC(=O)N(CC(=O)Nc2ccccc2C(=O)N2CCCCC2)C1=O (configuration not stated) | -7% | -14%
CCNC(=O)C1CCCN(C(=O)c2ccc(OC)cc2)CC1 (configuration not stated) | 0% | 14%
Cc1cc2nc3n(c2cc1C)CC1CC(C(=O)NCC2CC2)N(C)C31 (configuration not stated) | -9% | -20%
CC(=O)c1ccc(S(=O)(=O)N2CCn3cccc3C2c2ccccc2F)cc1 (configuration not stated) | -6% | -8%

# Carrying on:
Compound | Vaccinia Venus | Vaccinia mCherry
CCCC1CCC(C(=O)Nn2cnc3ccccc3c2=O)CC1 (configuration not stated) | -13% | -5%
Cc1ccccc1OCC(=O)Nc1ccc(C(N)=O)cc1 | -3% | 0%
Cc1cc(C(=O)Cn2nc(C(=O)O)c3ccccc3c2=O)c(C)n1-c1ccc(OC(F)F)cc1 | -16% | -13%
O=C(Nc1cccc(C(=O)N2CCN(c3ccccc3)CC2)c1)c1ccco1 | -18% | -13%
O=C(COC(=O)c1ccc2c(c1)C(=O)N(Cc1ccncc1)C2=O)Nc1ccccc1[N+](=O)[O-] | 0% | -5%
COc1ccc(NC(=O)CSc2nnc(NC(=O)c3ccc(S(=O)(=O)N4CCOCC4)cc3)s2)cc1 | -15% | i
CC(=O)Nc1ccccc1-c1nc2ccc(C(=O)N3CCN(c4ccccc4)CC3)cc2[nH]c1=O | -4% | i
Cc1cccc(-n2c(O)c(C=NCc3cccnc3)c(=O)[nH]c2=O)c1C | -24% | /
Cc1nnc(NC(=O)c2ccc3ccccc3c2)s1 | -4% | i
Cc1ccn(CC(=O)N/N=C/c2cc([N+](=O)[O-])ccc2O)n1 | -23% | -29%

# High-throughput results from PubChem BioAssay.
